# Screening results: PubChem BioAssay, National Center for Advancing Translational Sciences (NCATS)
# Pin1 inh = inhibitors of human Pin1. Potency, µM (titrated, usually from 115 µM), inactives show top-dose activity, negative = inhibition, hits mostly inhibitors. Q13526. 0.009% of 390,000 active. Pin1 FP peptide displacement, HiFluor488, 10 min; active = well fitted inhibition curve with a large enough effect in the polarisation, with a control signal flat, not every such curve was filed as active; inconclusive = small, poorly fitted or top-dose-only effect, or effect the other way, or a change in a side signal; inactive = no such curve, though single readings can be large or run the other way; the % refers to the polarisation; also: potency is read from the fitted curve at half-maximal effect; % is scaled to controls: 0 for no effect and ±100 for the full control effect
# Target sequence (Q13526 whole entry, looked up): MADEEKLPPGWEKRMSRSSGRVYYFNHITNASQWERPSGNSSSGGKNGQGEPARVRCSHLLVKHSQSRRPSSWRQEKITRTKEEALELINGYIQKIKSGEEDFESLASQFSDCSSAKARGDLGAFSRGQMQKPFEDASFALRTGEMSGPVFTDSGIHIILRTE
# TRHR ag = TRH receptor (human) agonism | 0.18% of 360,000 active | P34981 | TRHR cells, calcium flux fluo-8, FDSS agonist mode | activation, % at 2 µM | AID 493084; in the data active = activation above about 30%; also: 0% is about no effect
#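 TRHR-expressing cells loaded with fluo-8 calcium dye; 23 nL library compound pin-transferred, kinetic FDSS fluorescence (Ex 480/Em 530) recorded about 180 s for agonist-induced calcium release, before a 10 nM TRH EC20 addition for potentiator mode.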
# D2 antagonist = D2 dopamine receptor (human) antagonism | 2% of 340,000 active | HEK293 TREx D2 cells, calcium flux, dopamine EC80 | P14416 | inhibition, % at 10 µM; in the data active = inhibition above about 30%; also: 0% is about no effect
# Target sequence (P14416 whole entry, looked up): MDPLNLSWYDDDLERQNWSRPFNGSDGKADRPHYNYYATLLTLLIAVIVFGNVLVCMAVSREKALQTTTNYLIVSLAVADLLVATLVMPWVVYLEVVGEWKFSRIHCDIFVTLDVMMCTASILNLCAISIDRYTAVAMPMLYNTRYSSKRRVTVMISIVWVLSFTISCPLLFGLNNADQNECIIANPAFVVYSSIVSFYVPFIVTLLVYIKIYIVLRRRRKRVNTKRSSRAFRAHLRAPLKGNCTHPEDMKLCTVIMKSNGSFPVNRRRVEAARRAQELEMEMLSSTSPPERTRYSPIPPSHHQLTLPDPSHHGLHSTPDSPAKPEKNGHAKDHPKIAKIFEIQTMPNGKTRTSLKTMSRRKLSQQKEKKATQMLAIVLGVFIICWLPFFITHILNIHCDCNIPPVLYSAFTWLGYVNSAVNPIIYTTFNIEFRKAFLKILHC
#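 Cells plated overnight at 30 C with tetracycline; no-wash calcium dye, 30–90 min RT; 10 s baseline; compound pinned; 180 s read; EC80 dopamine added; another 180 s read.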
# rTrxR1 inhibitor = rat TrxR1 inhibition. O89049. recombinant rTrxR1, NADPH fluorescence consumption, selenite substrate. Potency, µM (doses to about 114 µM), without a hit: at the highest dose activity change, negative = inhibition, hits mostly inhibitors. 1% of 390,000 active; also: potency is read from the fitted curve at half-maximal effect; % is scaled to controls: 0 for no effect and ±100 for the full control effect; nearly all actives have a fitted effect of over 65% in size
# Target sequence (O89049 whole entry, looked up): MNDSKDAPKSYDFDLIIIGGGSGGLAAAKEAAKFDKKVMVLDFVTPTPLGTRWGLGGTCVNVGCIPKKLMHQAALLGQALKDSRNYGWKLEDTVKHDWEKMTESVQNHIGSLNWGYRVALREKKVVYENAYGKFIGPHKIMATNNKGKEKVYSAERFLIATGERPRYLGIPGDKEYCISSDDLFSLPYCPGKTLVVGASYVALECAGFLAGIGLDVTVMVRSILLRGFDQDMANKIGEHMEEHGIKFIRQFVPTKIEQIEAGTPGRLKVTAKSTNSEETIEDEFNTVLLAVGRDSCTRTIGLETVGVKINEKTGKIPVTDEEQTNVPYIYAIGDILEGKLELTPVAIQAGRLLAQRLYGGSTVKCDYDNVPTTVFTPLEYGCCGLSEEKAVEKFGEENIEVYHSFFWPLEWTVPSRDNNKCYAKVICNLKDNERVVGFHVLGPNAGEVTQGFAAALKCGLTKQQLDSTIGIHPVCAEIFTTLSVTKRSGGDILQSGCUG
#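 Rat TrxR1 (90 nM in the dispensed reagent) was pre-reduced with 400 uM NADPH for 5 min at room temperature, then incubated with compound for 15 min. After 400 uM selenite was added, NADPH fluorescence (Ex 340/Em 450 nm) was followed for 8 min.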
# TrxR1 substrate = rat thioredoxin reductase 1 substrate activity | purified TrxR1 substrate turnover, NADPH consumption readout | AID 588456 | O89049 | 0.01% of 390,000 active | Potency, µM (titrated, usually from 114 µM), without a hit: at the top dose activity change, negative = substrate turnover; also: potency is read from the fitted curve at half-maximal effect; % is scaled to controls: 0 for no effect and ±100 for the full control effect; nearly all actives have a fitted effect of over 50% in size
#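 Rat TrxR1, dispensed at 90 nM, was prereduced with 400 uM NADPH (final) for 5 min at ~22 deg C, then incubated with compound 15 min before 400 uM selenite. A first-read NADPH fluorescence drop versus no-compound background flagged substrates.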
# IDH1 R132H inh = inhibitors of human mutant IDH1 R132H; AID 602179; 0.093% of 390,000 active; Potency, µM (doses to about 76.6 µM), inactives show top-dose activity change, negative = inhibition, most hits filed as inhibitors; IDH1-R132H enzyme, NADPH consumption, diaphorase/resazurin fluorescence; also: potency is read from the fitted curve at half-maximal effect; % is scaled to controls: 0 for no effect and ±100 for the full control effect; nearly all actives have a fitted effect of over 65% in size
#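 IDH1-R132H (0.5 ug/mL) preincubated 30 min with compound, then NADPH (0.016 mM) and alpha-KG (2 mM) added; 80 min at RT, pH 7.5. Remaining NADPH coupled via diaphorase/resazurin to fluorescence (540/590 nm); concentration-response curves normalized to no-enzyme control.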
# D2 agonist = activates the human D2 dopamine receptor; activation, % at 2 µM; HEK293 T-REx D2 cells, calcium flux agonist mode; P14416; 0.53% of 340,000 active;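 active = activation over 3 SD above normal in the single-dose calcium agonist read, cut at about 30% in these data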; also: 0% is about no effect
#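 Tetracycline-induced HEK293 T-REx cells with force-coupled D2 receptor, plated overnight at 30 C, loaded with no-wash calcium dye. After a 10 s baseline, compound was pin-added and calcium flux read kinetically for 180 s; calcium rises flagged agonists.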
# TRHR enhancer = allosteric enhancers of human TRH receptor. P34981. 0.66% of 360,000 active. TRHR cells, fluo-8 calcium fluorescence, EC20 TRH enhancement. enhancement, % at 2 µM; in the data active = enhancement above about 30%; also: 0% is about no effect
#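 Enhancer read-out: after compound pinning and an initial kinetic agonist-mode read, an EC20 of TRH (10 nM final) was injected and fluo-8 calcium signal (Ex 480/Em 530) followed at 1 s/cycle for 100 cycles in TRHR-expressing cells.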
# * marks the source's active call; other numbers are inactive results; ? = inconclusive; nt = not tested or not shown; [ ] = dose if it differs, or a comment. Unless noted, calls follow the shape of the dose curve; as a rule, active = well fitted inhibition curve with a large enough effect; inconclusive = small, poorly fitted or top-dose-only effect; inactive = no such curve, though single readings can be large or run the other way. Only part of the results is shown; the hit share may differ from the screen's.
# Letter code: A = Pin1 inh; B = TRHR ag; C = D2 antagonist; D = rTrxR1 inhibitor; E = TrxR1 substrate; F = IDH1 R132H inh; G = D2 agonist; H = TRHR enhancer
OC(COc1ccc(F)cc1)CN1CCN(c2ccccc2F)CC1 (stereo unspecified)
  A = -2%; B = -1.1; C = 87*; D = 19%; E = 4%; F = 3%; G = -1.0; H = -8
CN(CCO)c1cc(NCCCN2CCC(Cc3ccccc3)CC2)c2nonc2c1[N+](=O)[O-]
  A = 4%; B = -0.7; C = 20; D = 4%[57.1 µM]; E = -16%; F = 8%; G = 2.2; H = -6
Cc1ccc(C(=O)CSc2nc(O)cc(=O)[nH]2)cc1C
  A = -1%; B = 0.4; C = -6; D = 1%; E = -3%; F = 13%; G = 1.8; H = 1
COC(=O)c1ccc(NC(=O)C(=O)N2CCN(C(=S)Nc3cccc(C)c3C)CC2)cc1
  A = 1%; B = 0.4; C = -8; D = -19%; E = -14%; F = 0%; G = -0.5; H = -1
CCOC(=O)[C@H](O)[C@@H](O)c1cccc([C@H](O)[C@@H](O)C(=O)OCC)c1
  A = -2%; B = 0.2; C = nt; D = -5%[57.1 µM]; E = 1%[57.1 µM]; F = 20%; G = nt; H = 1
Cc1ccc(NC(=O)c2cc3c(s2)CCC3)cc1S(=O)(=O)N1CCOCC1
  A = 8%; B = -0.1; C = -16; D = 19%; E = 9%; F = 2%; G = 0.0; H = 0
CC(=O)Cc1nsc(NC(=O)c2ccc(-c3cccc(Cl)c3)o2)n1
  A = 1%; B = -1.3; C = -9; D = ?; E = 6%; F = 25%; G = -1.6; H = 5
CCOc1ccc(NC(=O)NC(CC)Cn2nnc3ccccc3c2=O)cc1 (stereo unspecified)
  A = 2%; B = -2.5; C = nt; D = 47%[activator]; E = 76%[activator]; F = 14%; G = -1.0; H = -1
COCCN1C=C2C(=O)C(C)(OC(=O)CCC(=O)OC)C(=O)C=C2C=C1C1CC1 (stereo unspecified)
  A = ?; B = 0.2; C = -11; D = 7%; E = -15%; F = 15%; G = 0.2; H = 1
CC1CCN(c2oc(/C=C/c3ccc(F)cc3)nc2C#N)CC1
  A = -8%; B = -0.2; C = nt; D = 24%; E = 236%[activator]; F = 0%; G = nt; H = -5
Cc1ccc(S(=O)(=O)NC(=O)NN2CCCCCC2)cc1
  A = 6%; B = 0.1; C = 34*; D = ?; E = 7%[57.1 µM]; F = -3%; G = 1.9; H = -3
CC(C)CCn1c(CN(C)Cc2ccccc2)nc2c1c(=O)n(C)c(=O)n2C
  A = -2%; B = -2.0; C = 10; D = 13%; E = 6%; F = 5%; G = 1.1; H = -6
Cc1ccc(NC(=O)/C(C#N)=C\c2ccc(-c3ccc(Cl)cc3)o2)c(C)c1
  A = ?; B = -0.1; C = nt; D = 21%; E = 0%; F = -13%; G = 1.2; H = -10
Cc1nn(-c2ccccc2)c2[nH]c(=O)c(CNCC3CCCO3)cc12 (stereo unspecified)
  A = 2%; B = 0.1; C = -12; D = -26%; E = 10%; F = -3%; G = -0.7; H = -12
Cc1ccc(C(=O)C=CNNC(=O)c2ccccc2)cc1
  A = -1%; B = -0.1; C = 3; D = -6%; E = -3%; F = -2%; G = -0.6; H = -4
O=C(O)c1cccc(S(=O)(=O)N2CCSCC2)c1
  A = -2%; B = 0.5; C = -4; D = 10%[57.1 µM]; E = 17%[57.1 µM]; F = 1%; G = 0.1; H = -2
N#Cc1c(N)n(CCNC(=O)c2ccc(Cl)cc2)c2nc3ccccc3nc12
  A = ?; B = 0.1; C = 0; D = 21%; E = 48%[activator]; F = 0%; G = -0.4; H = -4
Cc1nnc(NC(=O)c2ccco2)s1
  A = -1%; B = 0.5; C = -7; D = 13%[57.1 µM]; E = 4%[57.1 µM]; F = 17%; G = 1.3; H = 1
CCN(CC)C(=O)CSC(Nc1ccc(F)cc1)=C(C#N)C#N
  A = 65%[activator]; B = 4.1; C = -13; D = 3%; E = 1%; F = -10%; G = 4.6; H = -2
Cc1ccc(C(=O)Nc2nc3n(n2)C(c2ccc(F)cc2)C=C(c2ccccc2)N3)cc1 (stereo unspecified)
  A = -2%; B = 0.2; C = nt; D = 2%; E = -6%; F = -10%; G = nt; H = 2
O=c1c(NCCc2ccccc2)c(-c2ccccc2)c1=O
  A = 1%; B = -0.5; C = -24; D = 18%; E = -2%; F = -2%; G = -0.3; H = 3
CCCN(C(=O)c1c(C)oc2ncnc(N3CCOCC3)c12)c1ccc(Cl)c(Cl)c1
  A = 1%; B = -0.4; C = nt; D = 10%; E = 0%; F = 11%; G = -0.2; H = -3
O=C(Nc1ccc(S(=O)(=O)N2CCOCC2)cc1)c1ccc([N+](=O)[O-])s1
  A = 2%; B = 0.5; C = 2; D = 8%[57.1 µM]; E = 3%[57.1 µM]; F = -4%; G = -0.5; H = -7
CN1CCNC(=O)C1CC(=O)NCCc1ccccc1F (stereo unspecified)
  A = -5%; B = -0.7; C = -20; D = -1%[57.1 µM]; E = 3%[57.1 µM]; F = 7%; G = 4.5; H = -5
Cc1cc(C)cc(Nc2cc(-c3ccccc3)nc(C)n2)c1
  A = -9%; B = 0.4; C = nt; D = 10%; E = 4%; F = 2%; G = 2.1; H = 0

# D2 antagonist, entries above that show a hit
Compound,Pin1 inh,TRHR ag,D2 antagonist,rTrxR1 inhibitor,TrxR1 substrate,TRHR enhancer
OC(COc1ccc(F)cc1)CN1CCN(c2ccccc2F)CC1 (stereo unspecified),-2%,-1.1,87*,19%,4%,-8
Cc1ccc(S(=O)(=O)NC(=O)NN2CCCCCC2)cc1,6%,0.1,34*,?,7%[57.1 µM],-3

# Molecules shown so far that have two or more sulfur atoms, in the order listed:
# Letter code: A = Pin1 inh; B = TRHR ag; C = D2 antagonist; D = rTrxR1 inhibitor; E = TrxR1 substrate; F = IDH1 R132H inh; G = D2 agonist; H = TRHR enhancer
Cc1ccc(NC(=O)c2cc3c(s2)CCC3)cc1S(=O)(=O)N1CCOCC1
  A = 8%; B = -0.1; C = -16; D = 19%; E = 9%; F = 2%; G = 0.0; H = 0
O=C(O)c1cccc(S(=O)(=O)N2CCSCC2)c1
  A = -2%; B = 0.5; C = -4; D = 10%[57.1 µM]; E = 17%[57.1 µM]; F = 1%; G = 0.1; H = -2
O=C(Nc1ccc(S(=O)(=O)N2CCOCC2)cc1)c1ccc([N+](=O)[O-])s1
  A = 2%; B = 0.5; C = 2; D = 8%[57.1 µM]; E = 3%[57.1 µM]; F = -4%; G = -0.5; H = -7

# (next part)
# Letter code: A = Pin1 inh; B = TRHR ag; C = D2 antagonist; D = rTrxR1 inhibitor; E = TrxR1 substrate; F = IDH1 R132H inh; G = D2 agonist; H = TRHR enhancer
Oc1ccc(N2CCN(C(c3ccncc3)c3nnnn3C3CCCC3)CC2)cc1 (stereo unspecified)
  A = -7%; B = 0.0; C = -15; D = 9%; E = 9%; F = -14%; G = -0.1; H = 4
CN1CCN(c2oc(/C=C/c3ccccc3)nc2C#N)CC1
  A = 0%; B = 0.2; C = -18; D = 3%[57.1 µM]; E = 21%; F = 3%; G = 0.1; H = 6
COC(=O)CCC(=O)OC1(C)C(=O)C=C2C=C(C3CC3)N(C3CC3)C=C2C1=O (stereo unspecified)
  A = -18%; B = -0.1; C = -3; D = 22%[57.1 µM]; E = -6%[57.1 µM]; F = 1%; G = -0.2; H = 2
COc1cccc(CC(=O)N2CCN(S(=O)(=O)c3ccc(Br)cc3)CC2)c1
  A = 4%; B = -0.6; C = -24; D = 1%; E = -5%; F = 0%; G = 0.0; H = 8
N#CC(c1ccccn1)(c1ncc(C(F)(F)F)cc1Cl)N1CCOCC1 (stereo unspecified)
  A = -2%; B = nt; C = nt; D = 15%; E = 5%; F = -10%; G = nt; H = nt
COc1ccccc1C(=O)Nc1ccc(C)cc1C(=O)c1ccccc1
  A = -1%; B = 0.5; C = -6; D = 14%[57.1 µM]; E = -9%; F = -2%; G = 0.4; H = -8
O=C(O)c1ccc(/C=C2\CCCc3c2nc2ccccc2c3C(=O)O)cc1
  A = -21%; B = 0.2; C = -14; D = -24%; E = 9%; F = 0%; G = 1.0; H = -5
CC(C)(C)NC(=O)CN(C(=O)CCN1CCCc2ccccc21)C(C)(C)C
  A = -17%; B = -0.2; C = -11; D = -14%[57.1 µM]; E = 5%[57.1 µM]; F = 2%; G = -0.1; H = 0
COc1ccccc1NC(=O)C(=O)N(c1cccnc1)C(C(=O)NC(C)(C)C)c1ccccc1F (stereo unspecified)
  A = -1%; B = -1.5; C = 7; D = 3%; E = -3%; F = -3%; G = 0.9; H = 2
OC(CN1CCN(c2ccccc2)CC1)Cn1c2ccccc2c2ccccc21 (stereo unspecified)
  A = -4%; B = 0.5; C = -13; D = 11%[57.1 µM]; E = -6%; F = 7%; G = 0.4; H = 13
CCO/C=C1\C(=O)N(c2ccc(OCC)cc2)C(=O)c2ccccc21
  A = -9%; B = 1.7; C = 9; D = -16%; E = 22%; F = -22%; G = 3.8; H = 1
COc1cccc(-c2nn(C)c3sc(C(=O)N4CCOCC4)cc23)c1
  A = 2%; B = -0.1; C = -5; D = 0%; E = -1%; F = -1%; G = 0.8; H = 3
CCN(CC)CC(=O)N1c2ccccc2Oc2c(c(=O)n(C)c(=O)n2C)C1c1cccc([N+](=O)[O-])c1 (stereo unspecified)
  A = 25%; B = -1.2; C = -3; D = ?; E = -7%; F = 0%; G = -2.1; H = 9
Cc1ccc(/C(O)=C/c2nc3ccccc3oc2=O)cc1
  A = ?; B = 0.7; C = -11; D = 17%[57.1 µM]; E = 0%[57.1 µM]; F = 8%; G = 2.0; H = 2
C[C@H](NS(=O)(=O)c1ccc(Cl)cc1)C(=O)OCC(=O)c1ccc[nH]1
  A = 2%; B = -0.2; C = nt; D = 13%; E = -3%; F = -6%; G = nt; H = -1
C/C(=N\NC(=O)c1ccc(NS(=O)(=O)c2cccs2)cc1)c1cccs1
  A = -2%; B = 1.5; C = -4; D = 18%[57.1 µM]; E = 1%[57.1 µM]; F = 0%; G = 4.0; H = 3
Cc1cc(N/N=C\c2ccc(Br)cc2)nc(-n2nc(C)cc2C)n1
  A = -12%; B = -1.0; C = -2; D = 35%; E = 6%; F = -7%; G = -0.1; H = 6
O=C(O)/C=C/C(=O)Nc1cc(F)ccc1F
  A = -1%; B = 0.3; C = -4; D = 27%; E = 3%; F = -12%; G = 1.1; H = -2
CC(C)CC(C(=O)NCc1ccc(F)cc1)N1Cc2ccccc2C1=O (stereo unspecified)
  A = 0%; B = -0.3; C = nt; D = 9%; E = -3%; F = 24%; G = -0.5; H = 5
